Screening data: PubChem BioAssay, several laboratories
ABHD4 inh = ABHD4 inhibitors, primary screen, biochemical, fluorescence polarization, mouse. 0.54% of 370,000 active. inhibition, % at 8.92 µM. purified mABHD4, FP-Rh probe fluorescence polarization. AID 720543, 2013. (Lyso)-N-acylphosphatidylethanolamine lipase (Mus musculus), Q8VD66;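 active = inhibition exceeding the mean over every tested compound plus 3 SD, cut at about 30% in these data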;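 note: 0% = plate median of compound wells and 100% = S159A mutant with DMSO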
Target sequence (Q8VD66 whole entry, looked up): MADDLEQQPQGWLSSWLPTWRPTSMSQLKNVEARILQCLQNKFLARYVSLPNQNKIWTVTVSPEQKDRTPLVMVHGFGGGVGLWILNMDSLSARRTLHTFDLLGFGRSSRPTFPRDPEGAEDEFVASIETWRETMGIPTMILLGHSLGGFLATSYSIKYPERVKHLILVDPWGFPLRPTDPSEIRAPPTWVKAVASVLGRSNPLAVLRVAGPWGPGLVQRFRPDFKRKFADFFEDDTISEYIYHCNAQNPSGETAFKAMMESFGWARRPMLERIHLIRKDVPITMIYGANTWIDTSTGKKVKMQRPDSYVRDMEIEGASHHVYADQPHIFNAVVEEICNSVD
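system = mouse ABHD4 enzyme, wild type | medium = HEPES pH 7.0, NaCl, Pluronic buffer | also added = FP-Rh probe | incubation = Enzyme–compound pre-incubation 45 min, then probe 60 min, both 25 °C | technique = fluorescence polarization, excitation 525 nm, emission 598 nm, BODIPY TMR filters | controls = S159A mutant high control, sample median low control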
rCAG binder = binders of r(CAG) RNA repeats, primary screen, biochemical, fluorescence; r(CAG) RNA repeat, TO-PRO-1 dye displacement fluorescence; 1.3% of 370,000 active; inhibition, % at 3 µM; AID 651821, 2012;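 active = inhibition above the plate cutoff, the mean of all test compounds on that plate plus 3 SD, cut at about 35% in these data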;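 note: 0% = DMSO alone and 100% = 100 µM mitoxantrone as full dye displacement; higher means more dye released from RNA so lower well fluorescence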
ASAP1 GAP inh = inhibitors of human ASAP1 ArfGAP activity, primary screen, biochemical, fluorescence polarization; inhibition, % at 16.5 µM; 0.19% of 360,000 active; ASAP1-stimulated ARF1 GTP hydrolysis, GDP FP detection; Arf-GAP with SH3 domain, ANK repeat and PH domain-containing protein 1 (Homo sapiens), …; in the data active = inhibition above about 25%;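 note: 0% = vehicle with enzyme and substrate and 100% = no enzyme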
Target sequence (Q9ULH1 325-724 limits assumed): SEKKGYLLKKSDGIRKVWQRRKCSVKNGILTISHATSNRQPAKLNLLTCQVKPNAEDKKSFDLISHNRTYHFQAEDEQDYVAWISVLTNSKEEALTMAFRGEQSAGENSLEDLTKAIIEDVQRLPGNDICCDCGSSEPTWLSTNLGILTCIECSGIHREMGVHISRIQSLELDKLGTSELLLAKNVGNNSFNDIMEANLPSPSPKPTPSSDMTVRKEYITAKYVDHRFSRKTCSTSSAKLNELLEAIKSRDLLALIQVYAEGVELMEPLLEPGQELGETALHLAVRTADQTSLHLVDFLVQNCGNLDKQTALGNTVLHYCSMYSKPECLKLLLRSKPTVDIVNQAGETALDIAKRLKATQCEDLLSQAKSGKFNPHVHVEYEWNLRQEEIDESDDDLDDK
NPR1 activator = GC-A stimulated cGMP production enhancers – HEK293 GC-A cells, cGMP TR-FRET, EC30 ANP, primary screen; Atrial natriuretic peptide receptor 1 (Homo sapiens), P16066; 0% at EC30 ANP, 100% saturating ANP; activation, % at 10 µM; 0.14% of 370,000 active; in the data active = activation above about 40%
SMARCA2 act = SMARCA2 (BRM) function activators, primary screen, cell-based, luminescence, high throughput; 1% of 370,000 active; activation, % at 9.1 µM; MG213 cells, MMTV-luciferase reporter, dexamethasone, overnight; in the data active = activation above about 7.8%;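 note: 0% = vehicle wells and 100% = reference activator wells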
NPR2 activator = human GC-B receptor activators, primary screen, HEK293 GC-B cells, cGMP TR-FRET, EC30 CNP; Atrial natriuretic peptide receptor 2 (Homo sapiens), P20594; 0% at EC30 CNP, 100% saturating CNP; activation, % at 10 µM; 0.11% of 370,000 active; AID 1920062, 2024;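 active = activation at 10 µM reaching about 35% in either raw or pattern-adjusted values, limit read from the data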
ARFGAP1 inh = inhibitors of rat ARFGAP1 GAP activity, primary screen, biochemical, fluorescence polarization, GDP tracer. Arfgap1-stimulated ARF1 GTP hydrolysis, GDP FP detection. inhibition, % at 16.5 µM. 0.26% of 360,000 active;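 active = inhibition above a per-plate limit, mean inhibition of low control wells plus 3 SD, cut at about 25% in these data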;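 note: 0% = DMSO wells with enzyme and 100% = wells lacking Arfgap1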
Target sequence (Q62848 1-136 limits assumed): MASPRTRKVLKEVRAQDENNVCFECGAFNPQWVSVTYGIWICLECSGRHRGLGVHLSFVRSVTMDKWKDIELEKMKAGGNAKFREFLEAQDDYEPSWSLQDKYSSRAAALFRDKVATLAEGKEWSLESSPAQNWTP
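Material: rat Arfgap1 catalytic domain, aa 1-136; also added: human ARF1(Δ1-17)-GTP substrate; compound dosing: one concentration, 16.5 µM, DMSO 1.26%; incubation: GTP hydrolysis reaction 2 h at 25 °C; measured by: Tracer-displacement fluorescence polarization with EDTA stop, 620/688 nm; evaluation: % inhibition from polarization; repeats: one replicate per compound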
Rev-erbA mod = modulators of Rev-erb alpha DNA binding, primary screen, biochemical, FITC-DNA, fluorescence polarization, uHTS | Nuclear receptor subfamily 1 group D member 1 (Homo sapiens), P20393 | Rev-erbα–FITC-DNA binding, 90 min | activity, % at 10 µM | 0.79% of 370,000 active | AID 1259318, 2017;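 active = activity above about 14%, limit read from the data; passing the limit was not always enough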;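 note: 0% = DMSO wells with 35 nM protein and 100% = DMSO wells with 750 nM protein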
PG9 binder = binders of HIV-1 gp120 antibody PG9, primary screen, biochemical, TR-FRET; TR-FRET gp120-PG9 antibody binding; inhibition, % at 6.7 µM; 0.43% of 360,000 active; in the data active = inhibition above about 8.5%
* hit, by the source's call.

item | mol | ABHD4 inh | rCAG binder | ASAP1 GAP inh | NPR1 activator | SMARCA2 act
1 | O=C(NC(=S)NNC(=O)c1ccccc1O)c1ccccc1 | 8 | 8 | -8 | 4 | -1
2 | Cc1ccc(C(=O)N=c2sccn2C)o1 | 6 | 1 | 8 | -1 | 2
3 | CCC1=NN(C(=O)c2ccc(Br)cc2)C(O)(c2ccc(C)cc2)C1 (centres undefined) | 2 | 7 | -6 | 2 | 0
4 | Fc1ccc(-n2ncc3c(SCc4cccnc4)ncnc32)cc1 | 6 | -1 | -2 | 2 | 1
5 | CC1(C)Cc2c(C#N)c(SCC(=O)c3ccccc3)nc(N3CCOCC3)c2CO1 | 0 | 0 | -11 | 11 | 0
6 | CC1CCc2sc(NC(=S)NC(=O)c3ccccc3)c(C#N)c2C1 (centres undefined) | 3 | 11 | 3 | -1 | 1
7 | O=C(NC1CCC(O)CC1)c1cccc2cccnc12 (centres undefined) | 1 | 1 | -8 | -4 | -3
8 | Cc1cc(N/N=C/c2ccccc2[N+](=O)[O-])nc(-n2nc(C)cc2C)n1 | 0 | 0 | 9 | 1 | 1
9 | COc1ccc(NC(=O)/C(C#N)=C\c2ccc(Br)o2)cc1 | -2 | 8 | -8 | -1 | 6
10 | O=C(NCCc1c[nH]c2ccccc12)/C(=C/c1ccco1)NC(=O)c1ccco1 | 6 | -1 | -6 | 2 | -1
11 | CC1(C)Cc2ccccc2C(/C(C#N)=N/O)=N1 | 1 | -1 | 4 | 0 | -2
12 | COc1ccc2cc(C#N)c(N3CCN(Cc4nnnn4CCC(C)C)CC3)nc2c1 | -1 | 2 | -2 | 0 | 0
13 | Cc1cc(C)c(NC(=S)N2CCCC2C(=O)O)c(C)c1 (centres undefined) | -4 | 0 | 6 | 3 | 8
14 | CC(C)(C)C(=O)NC(NC(=S)Nc1sc2c(c1C#N)CCCC2)C(Cl)(Cl)Cl (centres undefined) | -4 | 15 | 0 | 0 | -2
15 | O=C(N/N=C/c1ccc([N+](=O)[O-])cc1)c1ccc(NS(=O)(=O)c2cccs2)cc1 | 3 | 17 | -1 | -2 | -2

item | NPR2 activator | ARFGAP1 inh | Rev-erbA mod | PG9 binder
1 | 3 | 0 | -3 | -3.3
2 | 2 | -1 | 1 | -1.6
3 | 4 | 17 | 0 | -2.4
4 | -2 | -2 | -6 | -2.1
5 | 16 | -8 | -5 | 42*
6 | 1 | 14 | -10 | 1.3
7 | 7 | 4 | 5 | -1.3
8 | -7 | 7 | -3 | -2.4
9 | -3 | 10 | -29 | -0.2
10 | 2 | -6 | 3 | -1.5
11 | 3 | 1 | 0 | -1.4
12 | -10 | -1 | -3 | 2.5
13 | -6 | 8 | 3 | -2.1
14 | 5 | -12 | 1 | -0.6
15 | -9 | -5 | 1 | -0.7

Later entries
item | mol | ABHD4 inh | rCAG binder | ASAP1 GAP inh | NPR1 activator | SMARCA2 act
16 | CC(=O)N/C(=C/c1ccc(Cl)cc1)C(=O)NCCc1c[nH]c2ccccc12 | 5 | -1 | -4 | -2 | 0
17 | CCOCCCN1CC(=O)N2[C@@H](Cc3c([nH]c4ccccc34)C2(C)C)C1=O | 2 | -10 | 2 | 1 | -4
18 | Cn1c(N)c(C(=O)COC(=O)c2cccs2)c(=O)n(C)c1=O | 1 | 1 | 8 | 2 | 0
19 | Cc1cccc(/C=C2/Sc3ccc(C(=O)N4CCOCC4)cc3NC2=O)c1 | -4 | 1 | -2 | 6 | 0
20 | CCCCC(=O)Nc1ncc([N+](=O)[O-])s1 | 2 | -6 | -3 | -1 | -2
21 | CS(=O)(=O)c1ccc(-c2csc(-c3cccnc3)n2)cc1 | 0 | -1 | -1 | -2 | -1
22 | O=C(CCS(=O)(=O)c1ccccc1)Nc1ncc([N+](=O)[O-])s1 | -4 | 1 | -14 | -1 | 2
23 | CC1(C)NC(=O)N(CNc2cc(Cl)ccc2Cl)C1=O | -9 | -6 | -3 | 2 | 1
24 | COc1ccc(/C=N/Nc2cc(C)nc(-n3nc(C)cc3C)n2)cc1 | 5 | -6 | 10 | 5 | -2
25 | CCOC(=O)N/N=C/C=C/c1ccccc1[N+](=O)[O-] | -5 | -1 | -14 | 1 | 0
26 | Cc1c(OC(C)C(=O)N2C[C@H]3C[C@@H](C2)c2cccc(=O)n2C3)ccc2c3c(c(=O)oc12)CCCC3 (some centres undefined) | 4 | -4 | -5 | -6 | 1
27 | FC(F)(F)c1ccc2c(c1)N1CCCC1CN2 (centres undefined) | 16 | 12 | -5 | -4 | 4
28 | CSc1nc(N2CCCC2)c2c(c1C#N)CC(C)(C)OC2 | 4 | -1 | -7 | 4 | -1
29 | Cc1ccc(CNCc2cc3c(C(C)(C)C)nn(-c4ccccc4)c3[nH]c2=O)cc1 | 2 | -1 | 3 | 15 | -3
30 | COC(=O)c1cccc(CN2C(=O)SC(Nc3ccc(C)cc3)C2=O)c1 (centres undefined) | -7 | -1 | 0 | -1 | 1

item | NPR2 activator | ARFGAP1 inh | Rev-erbA mod | PG9 binder
16 | 5 | -2 | 4 | 0.3
17 | 1 | 1 | 3 | -3.1
18 | -11 | 1 | -3 | 0.5
19 | -3 | 0 | -10 | -0.2
20 | 0 | -1 | 2 | 1.4
21 | 5 | -11 | -1 | 0.7
22 | -2 | -14 | 6 | -0.6
23 | 5 | 10 | -2 | 1.9
24 | -7 | 8 | -2 | 0.4
25 | -1 | 1 | -6 | -1.0
26 | 2 | -1 | -3 | 0.3
27 | 1 | -2 | -3 | -5.7
28 | 0 | -8 | 3 | 0.2
29 | 1 | 0 | 1 | -2.6
30 | 0 | -2 | 1 | -1.2

Gathered by group, those above with fluorine (2)
item | mol | ABHD4 inh | rCAG binder | ASAP1 GAP inh | NPR1 activator | SMARCA2 act
4 | Fc1ccc(-n2ncc3c(SCc4cccnc4)ncnc32)cc1 | 6 | -1 | -2 | 2 | 1
27 | FC(F)(F)c1ccc2c(c1)N1CCCC1CN2 (centres undefined) | 16 | 12 | -5 | -4 | 4

item | NPR2 activator | ARFGAP1 inh | Rev-erbA mod | PG9 binder
4 | -2 | -2 | -6 | -2.1
27 | 1 | -2 | -3 | -5.7

Next section:
item | mol | ABHD4 inh | rCAG binder | ASAP1 GAP inh | NPR1 activator | SMARCA2 act
31 | O=C(NNS(=O)(=O)c1ccc(Br)cc1)c1ccccc1-n1cccc1 | -3 | 4 | -14 | -5 | -2
32 | N#CC(c1ccccc1F)(c1ncc(C(F)(F)F)cc1Cl)N1CCOCC1 (centres undefined) | -6 | 0 | -2 | -5 | -3
33 | CCC(=O)c1cccc2c1N=CC1=C(CC(C)(C)CC1=O)N2 | -8 | -3 | 3 | 3 | 3
34 | COc1cccc(C(=O)COc2ccccc2N2C(=O)C3C4C=CC(C4)C3C2=O)c1 (centres undefined) | 6 | 6 | -6 | -1 | -3
35 | Cc1ccc(C(=O)N/C(=C/c2ccco2)C(=O)NCCc2c[nH]c3ccccc23)cc1 | -1 | 2 | -7 | -3 | 0
36 | COc1ccc(S(=O)(=O)n2nc(OC(=O)c3cccs3)cc2N)cc1 | -7 | 2 | -5 | 4 | -4
37 | CC(OC(=O)CC(C)c1ccccc1)C(=O)Nc1ccc(Cl)cn1 (centres undefined) | 4 | -5 | 5 | -1 | -2
38 | Cc1cccc(C(=O)Nc2sc3c(c2C#N)CCCCC3)c1 | -2 | 1 | 12 | 0 | 8
39 | Cc1ccc(C(=O)N/C(=C\c2ccco2)C(=O)NCCc2c[nH]c3ccccc23)cc1 | 8 | 7 | 5 | 0 | 1

item | NPR2 activator | ARFGAP1 inh | Rev-erbA mod | PG9 binder
31 | 0 | 8 | 4 | -0.5
32 | -4 | -14 | 3 | 1.3
33 | -3 | 2 | 3 | -1.8
34 | 3 | 6 | 1 | 0.1
35 | -4 | -10 | -3 | -0.2
36 | 6 | 7 | -2 | -1.0
37 | -4 | 1 | -1 | -0.4
38 | -13 | 5 | 0 | 0.9
39 | 1 | -5 | 1 | -1.6

An excerpt from above in order of number of heavy atoms, descending:
item | mol | ABHD4 inh | rCAG binder | ASAP1 GAP inh | NPR1 activator | SMARCA2 act
26 | Cc1c(OC(C)C(=O)N2C[C@H]3C[C@@H](C2)c2cccc(=O)n2C3)ccc2c3c(c(=O)oc12)CCCC3 (some centres undefined) | 4 | -4 | -5 | -6 | 1
35 | Cc1ccc(C(=O)N/C(=C/c2ccco2)C(=O)NCCc2c[nH]c3ccccc23)cc1 | -1 | 2 | -7 | -3 | 0
34 | COc1cccc(C(=O)COc2ccccc2N2C(=O)C3C4C=CC(C4)C3C2=O)c1 (centres undefined) | 6 | 6 | -6 | -1 | -3
32 | N#CC(c1ccccc1F)(c1ncc(C(F)(F)F)cc1Cl)N1CCOCC1 (centres undefined) | -6 | 0 | -2 | -5 | -3
30 | COC(=O)c1cccc(CN2C(=O)SC(Nc3ccc(C)cc3)C2=O)c1 (centres undefined) | -7 | -1 | 0 | -1 | 1
31 | O=C(NNS(=O)(=O)c1ccc(Br)cc1)c1ccccc1-n1cccc1 | -3 | 4 | -14 | -5 | -2
37 | CC(OC(=O)CC(C)c1ccccc1)C(=O)Nc1ccc(Cl)cn1 (centres undefined) | 4 | -5 | 5 | -1 | -2
38 | Cc1cccc(C(=O)Nc2sc3c(c2C#N)CCCCC3)c1 | -2 | 1 | 12 | 0 | 8
28 | CSc1nc(N2CCCC2)c2c(c1C#N)CC(C)(C)OC2 | 4 | -1 | -7 | 4 | -1
25 | CCOC(=O)N/N=C/C=C/c1ccccc1[N+](=O)[O-] | -5 | -1 | -14 | 1 | 0
27 | FC(F)(F)c1ccc2c(c1)N1CCCC1CN2 (centres undefined) | 16 | 12 | -5 | -4 | 4

item | NPR2 activator | ARFGAP1 inh | Rev-erbA mod | PG9 binder
26 | 2 | -1 | -3 | 0.3
35 | -4 | -10 | -3 | -0.2
34 | 3 | 6 | 1 | 0.1
32 | -4 | -14 | 3 | 1.3
30 | 0 | -2 | 1 | -1.2
31 | 0 | 8 | 4 | -0.5
37 | -4 | 1 | -1 | -0.4
38 | -13 | 5 | 0 | 0.9
28 | 0 | -8 | 3 | 0.2
25 | -1 | 1 | -6 | -1.0
27 | 1 | -2 | -3 | -5.7

An excerpt; the hit share may differ from the screen's.
